NPYLR7 ag = activates Aedes aegypti NPYLR7 receptor; HEK293T NPYLR7/Galpha15, GCaMP6s calcium fluorescence; activation, % at 10 µM; 0.15% of 270,000 active; AID 1259423; in the data active = activation above about 40%;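 note: 0% = vehicle and 100% = reference agonist at the receptor; some compounds past the cut are filed as inactive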
NPYLR7 ag max-min = second read-out of NPYLR7 ag, no call of its own (marks repeat the call); activation, %; measured here: Max-Min RFU normalised activation; some inactives read as strong as hits;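 span of the calcium signal over five minutes; 0% = vehicle and 100% = native peptide agonist; compound fluorescence can raise it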
* = called active by the depositor; & = joins results of further samples.

SMILES	NPYLR7 ag	NPYLR7 ag max-min
Cc1ccc(-n2ncc3c(=O)n(NC(=O)COc4ccccc4)cnc32)cc1	0.2	-3.7
CN(Cc1nccn1C)C(=O)c1cccc(NCc2cccs2)c1	8.5	4.0
CCCc1cc(CN(C)C(=O)CC2(c3ccccc3OC)CC(=O)N(C)C2=O)[nH]n1 (configuration not stated)	-7.1	-10.3
Cc1ccc(CN(CCc2ccccc2)C(=O)CN(Cc2ccco2)C(=O)c2ccc(Cl)c(Cl)c2)o1	-13.7	-3.3
CCCCc1ncc(CN2CC[C@H](O)C[C@@H]2C(=O)O)[nH]1	3.9	3.5
O[C@@H]1CN(Cc2cc(F)ccc2-n2cccn2)CC[C@H]1N1CCN(c2ccccn2)CC1	14.7	5.0
O=C(NCc1ccc(N2CCCC2=O)cc1)c1cn(CCN2CCOCC2)nn1	13.6	3.2
COc1nc2ccccc2cc1-c1cccc(OC(C)C(N)=O)c1 (configuration not stated)	22.6	4.0
CC(C)(C#N)c1cc(Cn2cncn2)cc(C(C)(C)C#N)c1	-2.4&-7.3&5.1	-8.3&-7.5&5.9
COc1ccc(CN2CCCC2)cc1Oc1cc(C(F)(F)F)cc(C)n1	6.3	1.8

Filtered by structure, those above with four or more nitrogen atoms.
SMILES	NPYLR7 ag	NPYLR7 ag max-min
Cc1ccc(-n2ncc3c(=O)n(NC(=O)COc4ccccc4)cnc32)cc1	0.2	-3.7
CN(Cc1nccn1C)C(=O)c1cccc(NCc2cccs2)c1	8.5	4.0
CCCc1cc(CN(C)C(=O)CC2(c3ccccc3OC)CC(=O)N(C)C2=O)[nH]n1 (configuration not stated)	-7.1	-10.3
O[C@@H]1CN(Cc2cc(F)ccc2-n2cccn2)CC[C@H]1N1CCN(c2ccccn2)CC1	14.7	5.0
O=C(NCc1ccc(N2CCCC2=O)cc1)c1cn(CCN2CCOCC2)nn1	13.6	3.2
CC(C)(C#N)c1cc(Cn2cncn2)cc(C(C)(C)C#N)c1	-2.4&-7.3&5.1	-8.3&-7.5&5.9

The main list resumes, repeating the two entries before the break.
SMILES	NPYLR7 ag	NPYLR7 ag max-min
CC(C)(C#N)c1cc(Cn2cncn2)cc(C(C)(C)C#N)c1	-2.4&-7.3&5.1	-8.3&-7.5&5.9
COc1ccc(CN2CCCC2)cc1Oc1cc(C(F)(F)F)cc(C)n1	6.3	1.8
CCOc1ccc(Oc2ccc(NC(=O)CCn3[nH]c(=O)ccc3=O)cc2)cc1	6.8	2.7
O=C(NCCNc1nc(-c2ccco2)nc2ccccc12)c1cccc(F)c1	-3.3	-3.4
CC1=CCC(C(C)(O)COC(=O)/C=C/c2ccccc2)CC1 (configuration not stated)	-10.7	-16.5
O=C(c1cccnc1Oc1ccc(Cl)cc1)N1CCCC1c1nnc2c(C(F)(F)F)cccn12 (configuration not stated)	8.3	1.2
CCC(OC(=O)c1ccc2c(c1)OCO2)C(=O)Nc1cc(C)on1 (configuration not stated)	6.4	0.3
O=c1cnnc(SCc2cccc(F)c2)[nH]1	-0.7	-2.6
O=C(CCCn1nnnc1CN1CCOCC1)NC(c1ccccn1)C(F)(F)F (configuration not stated)	1.2	-2.5
CCCN(CC(=O)Nc1cc(Cl)ccc1Cl)C(=O)CCl	3.1	3.0
C=C(C)COc1cccc(CN2CCNC(=O)C2)c1	-4.2	-5.7
COc1ccc(S(=O)(=O)N2CCC3(CC2)C(=O)N(CC(=O)NCCc2ccc(OC)c(OC)c2)CN3c2ccccc2)cc1	19.4	15.4
CCCOC(=O)C1=C(C)N(CC)C(=O)NC1c1ccccc1[N+](=O)[O-] (configuration not stated)	-1.8	-7.1
Cc1c(C(=O)N(CCc2ccccc2)Cc2ccccc2)cc(-c2ccccc2)n1-c1ccccc1F	-4.6	6.3
COc1ccc2oc(=O)c(-c3nnc(-c4ccc(C)cc4)o3)cc2c1	3.5	-2.4
Cc1cc(=O)oc(C)c1C(=O)OCC(=O)c1ccc(Cl)c(Cl)c1	-18.1	-24.1
Cc1ccccc1CN1CCc2[nH]cnc2C1c1cccs1 (configuration not stated)	-0.7	5.8
Nc1nnc(C(F)(F)F)s1	0.3	0.6
O=C1CC(c2ccccc2)CC2=Nc3ccccc3NC(c3cc4c(cc3Br)OCO4)C12 (configuration not stated)	5.5	3.3
N#Cc1ccccc1-c1ccc(CN2CCNC(=O)C2)cc1	1.6	-0.1
Cc1cc(Br)cc2c(N=Nc3ccccc3)c(O)n(C)c12	21.4	8.0
C=CCN(Cc1ccc(SC)cc1)C(=O)[C@@H]1C[C@@H](O)CN1	5.6	-3.8
Cc1cccc(-n2nnnc2-c2nc3ccccc3[nH]2)c1	0.4	25.8
Cc1cccc(NC(=O)c2sc3nc(-c4ccccc4)cn3c2C)n1	2.9	-0.4
Cc1cc(NC(=O)N(C)C2CCC(C)CC2)ccc1-n1cnnn1 (configuration not stated)	-0.8	-1.8
C=CCNc1ccccc1C(=O)NCc1nc(C)c2c(n1)CCCC2	-6.8	-10.1
COc1ccccc1CNC(=O)CN1CCCN(C(=O)C2CCCO2)CC1 (configuration not stated)	9.7	-0.5
O=C(CCc1cccs1)NC1CC(=O)N(C2CCCCCC2)C1 (configuration not stated)	1.2	-2.1
Cc1noc(C)c1CC(=O)N1CCCC(C(=O)Nc2cccc(-c3ccc(F)cc3)c2)C1 (configuration not stated)	-8.8&2.9	-11.5&0.5
CC(C)CN(CC(=O)Nc1nc(CC(=O)O)cs1)C(=O)c1ccco1	-2.4	-14.5
O=C(c1csc2ccccc12)N1CCN(C2c3ccccc3CCc3ccccc32)CC1	24.7	5.2
COc1ccccc1CN(C)C(=O)CSc1nnc(-c2ccc3c(c2)OCO3)o1	8.7	4.2
O=C(C=Cc1ccc(OC(F)F)cc1)c1ccc(O)cc1	5.6	0.7
CCOC(=O)C1=C2c3cc(OC)c(OC)cc3CC(C)(C)N2C(=O)C1=O	0.0	-2.5
Cc1nc(SCCO)n[nH]1	1.8	-2.9
Cc1cccc(-n2nc(C(=O)NCCc3ccccn3)c(=O)n(Cc3ccccc3F)c2=O)c1	12.4	8.9
COc1cccc(-n2cc(CN(C)Cc3cc(C)c(C)o3)cn2)c1	4.6	2.2
COC(=O)c1ccc(CSc2nnc(Cc3ccccc3)n2-c2ccccc2OC)o1	-1.5	6.9
Cc1cc(CC(=O)N2CCNCC2C(=O)N2CCN(C)CC2)on1 (configuration not stated)	5.2	-6.0
O=c1cc(CN2CCCCCC2)nc2sccn12	21.1	12.5
COCc1cc(CN2CCC(N3CCCC3=O)CC2)ccc1OC	3.1	3.3
O=C(CN(CCCN1CCOCC1)C(=O)c1ccc(Cl)cc1)N(Cc1ccc(F)cc1)Cc1ccco1	-4.7	7.0
CCOc1cc(/C=C2/C(=N)N3N=C(c4ccccc4C)SC3=NC2=O)ccc1OS(C)(=O)=O	-1.2	-0.5
Clc1ccc2c(Cl)c3c(nc2c1)CCCC3	-1.9	-0.1
O=C(c1cccc(F)c1)N(CC(=O)N1CCc2sccc2C1COc1ccccc1F)CC1CCCO1 (configuration not stated)	-3.3	-0.5
CCOC(=O)c1c(C)[nH]c(C(=O)CN2C(=O)C(=O)N(CC(C)C)C2=O)c1C	-2.9	3.5
CCOC(=O)c1ccc2c(c1)nc(SCc1ccc(I)cc1)n2Cc1ccccc1	-5.0	-6.2
Cc1ccc(-c2nn3c(=S)[nH]nc3c3ccccc23)cc1	1.9	-0.7
CCn1cc(CN2CCC(Oc3cccc(C(=O)NCCc4ccccc4)c3)CC2)cn1	12.6	9.9
CCOC(=O)c1nc2ccccc2nc1N1CCCN(S(=O)(=O)c2cc(Cl)cc(Cl)c2)CC1	4.8	2.5
CCC(C)Nc1nc2c(c(=O)n(C)c(=O)n2C)n1CCCc1ccccc1 (configuration not stated)	0.7	-2.4
CCCCCC(C)NC(=O)c1cncn1-c1ccc(-c2cc(C)cc(C)c2)cc1 (configuration not stated)	16.4	5.8

Next structures
SMILES	NPYLR7 ag	NPYLR7 ag max-min
O=C1Nc2cc(Cl)ccc2Oc2ccc(NS(=O)(=O)CBr)cc21	10.0	5.0
COCc1ccccc1CNc1ccc(S(=O)(=O)N(C(C)C)C(C)C)cn1	3.2	-0.9
CCOc1ccccc1NC(=O)N(Cc1ccc(OC)c(OS(=O)(=O)c2cccc(C(F)(F)F)c2)c1)CC(C)C	10.3	7.0
CCN1CCC2(CC1)CC1CC3C=CC1(CN2C(C)=O)O3 (configuration not stated)	-1.1	-4.2
Cn1cc(CC(=O)NCc2cc(-c3ccco3)on2)c2ccccc21	-1.2	-1.6
CC(=O)NCC1CCN(Cc2cccc(-n3nc(C)cc3C)c2)C1 (configuration not stated)	2.5	0.7
CN(CC(=O)Nc1ccc(OC(F)(F)F)cc1)C(=O)CC(C(=O)N1CCOCC1)n1ccnc1 (configuration not stated)	3.6	10.1
CCn1ncnc1CN1CCCC2(CCN(C(=O)OCC(C)(C)C)C2)C1 (configuration not stated)	16.7	7.6
CN(C)C(=O)c1ccc(NCc2ccc(Cl)cc2)cc1	1.7	0.7
O=C(NC1CCCCC1)N1CCCN(c2nc(Cc3ccccc3)nc3onc(-c4ccccc4)c23)CC1	18.4	4.7
COc1ccc(N(C)S(=O)(=O)c2ccc(OC)c(N3CCN(C(=O)COC(C)=O)CC3)c2)cc1	14.5	4.2
COCc1ccc(CN2CCN(Cc3ccc(OC)c(C)c3C)C(CCO)C2)o1 (configuration not stated)	11.5	3.8
O=C(COC(=O)c1cccc(O)c1)c1ccc2c(c1)OCO2	6.6	0.2
CCOc1ccccc1N1CCN(C(=O)CSc2nc(Cl)cc(N3CCN(C(=O)C4CCCC4)CC3)n2)CC1	-14.5	-10.5
CCOC(=O)C1(C)CCCCN1C(=O)c1cccc(C(F)(F)F)c1 (configuration not stated)	4.3	2.7
COc1ccc(CCOC(=O)C2CCCCN2C(=O)c2c(-c3c(F)cccc3Cl)noc2C)cc1OC (configuration not stated)	2.1	-2.0
Cc1cc(Oc2cnn(C)c(=O)c2Nc2ccc(C(=O)NCc3ccncc3)cc2)ccc1Cl	-8.5	-0.7
CCOC(=O)c1cc(-c2ccc(N3CCN(C(=O)C4CCCCC4)CC3)cc2)n(-c2ccccc2Cl)n1	5.2	0.7
COc1cccc(-c2cc(C(=O)N(C)CCc3ccc(OC)c(OC)c3)n(-c3cccc(Cl)c3)n2)c1	-2.2	3.6
NC(=O)CN(Cc1ccco1)Cc1ccco1	-3.1	-2.2
CCOC(=O)N1CCN(C(=O)c2sc(NS(=O)(=O)c3ccccc3)nc2C)CC1	7.8	2.0
C[C@@H]1CN(Cc2ccc3c(c2)CN(C(=O)c2ccc(Oc4ccccc4)o2)CCO3)C[C@H](C)O1	14.1&17.4	6.7&4.0
O=c1[nH]c2ccc(N=Cc3c(F)c(F)c(F)c(F)c3F)cc2[nH]1	1.0	1.2
CCOc1ccccc1CN(CC)C(=O)c1ccccc1-n1cncn1	0.0	-1.9
CCN(CC(=O)Nc1c(C)cc(C)cc1Cl)Cc1cccs1	2.0	0.8
Cn1ccnc1-c1nccn1CC(c1ccc(F)cc1)N1CCCCC1 (configuration not stated)	5.3	4.8
OCc1ccc(CN2CCc3onc(C(c4ccccc4)c4ccccc4)c3C2)o1	-2.2	-4.4
CCCCNC(=O)c1cc(-c2ccc(OC)cc2)nn1-c1ccc([N+](=O)[O-])cc1	21.4	25.7
Cc1cc(C=C2C(=O)NC(=O)NC2=O)c(C)n1-c1ccccc1	-9.7	-20.7
Cc1cccc(C)c1OCC(=O)N(C)c1ccccc1F	5.0	2.1

Individual results from the entries so far.
NPYLR7 ag with CCN(CC(=O)Nc1c(C)cc(C)cc1Cl)Cc1cccs1 reads 2.0
NPYLR7 ag max-min with Cc1cc(C=C2C(=O)NC(=O)NC2=O)c(C)n1-c1ccccc1 reads -20.7
NPYLR7 ag with CCOc1ccccc1CN(CC)C(=O)c1ccccc1-n1cncn1 reads 0.0
NPYLR7 ag with O=c1[nH]c2ccc(N=Cc3c(F)c(F)c(F)c(F)c3F)cc2[nH]1 reads 1.0
NPYLR7 ag max-min with Cn1ccnc1-c1nccn1CC(c1ccc(F)cc1)N1CCCCC1 (configuration not stated) reads 4.8

Carrying on.
SMILES	NPYLR7 ag	NPYLR7 ag max-min
COc1cccc(-c2n[nH]c3c2CN(C(=O)CCc2c(C)noc2C)CC3)c1	2.4	-0.1
Cc1ccc2[nH]c(O)c(N=Nc3ccc([N+](=O)[O-])cc3)c2c1Br	-5.7	-7.3
Cn1ccnc1C(NC(=O)COc1ccc(Br)cc1)c1ccccc1F (configuration not stated)	0.9	-2.2
CC(C(=O)N1CCCC1)N1CCN(C(=O)NCC2CC=CCC2)CC1 (configuration not stated)	-7.0	-7.3
Oc1ccc(CN2CCC(OCc3cccnc3)CC2)cc1Cl	15.4	12.8
COCC(=O)Nc1ccc(OS(=O)(=O)/C=C/c2ccc(C)cc2)cc1	-0.4	-8.8
Cc1cc(N2CCN(Cc3cc4n(n3)CCCNC4)CC2)n2ncnc2n1	2.1	31.2
CC1=NN(c2ccccc2)C(=O)C1=Cc1c(O)n(-c2ccc(F)c(Cl)c2)[nH]c1=O	0.8	-1.5
O=S(=O)(c1ccc(F)c(F)c1F)N1CCN(c2ccccc2F)CC1	5.7	5.6
COc1cccc(-c2cc(C(=O)N3CCC(n4c(=O)[nH]c5ccccc54)CC3)nc3cc(C(C)(C)C)nn23)c1	17.0	18.1
COc1ccc(-c2nc(N(CCC(=O)N3CCCC3)Cc3ccco3)c3ccccc3n2)cc1	-8.0	0.3
CCN(CC)S(=O)(=O)c1ccc(C(=O)N2CCCC2c2ccc3c(c2)OCCCO3)cc1 (configuration not stated)	0.1	0.3
COc1ccc(/C=C/c2cc(OC)c(OC)cc2CC[N+](C)(C)C)cc1	8.6	6.2
CC(=O)c1ccc(N2CCN(Cn3nc(C)n(-c4cccc(C)c4)c3=S)CC2)c(F)c1	-2.0	-7.5
CCN1C(=O)Cc2cc(NS(=O)(=O)CC)ccc21	1.4	0.8
CCCN(Cc1nc2cc(Cl)ccc2c(=O)[nH]1)C(=O)COc1cc(C)ccc1Cl	8.1	6.7
COCCN(CC(=O)N(Cc1ccc(F)cc1)Cc1cccs1)C(=O)Nc1c(C(C)C)cccc1C(C)C	-2.7	6.0
CCN(Cc1ccc2c(c1)OCO2)C(=O)c1cc2ccccc2oc1=O	-0.5	-0.9
COc1ccc(-c2nc3cc(C)ccn3c2NC(=O)C(Cl)Cl)cc1	-6.3	2.0

These rows are one share of the data (hit frequency here may not be typical).
